# From PubChem
# Cruzain noTriton: blocks cruzain activity in detergent-free assay | AID 1476 | P25779 | purified cruzain, Z-FR-AMC fluorescence, no detergent | actives 2.3% (n = 200,000) | Potency, µM, for the others: max response, negative = inhibition, most hits filed as inhibitors; active means well fitted curve in the direction sought with a large enough effect; inconclusive means small, poorly fitted or top-dose-only effect, or another doubt; inactive means no such curve, though single readings can be large; an effect the other way counts as inactive or inconclusive;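 further: plate controls were enzyme without inhibitor for no effect and buffer without enzyme for full effect; nearly all actives have a fitted effect of over 40% in size; top concentration of the series not given in the record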
# Target sequence (P25779 123-467 limits assumed): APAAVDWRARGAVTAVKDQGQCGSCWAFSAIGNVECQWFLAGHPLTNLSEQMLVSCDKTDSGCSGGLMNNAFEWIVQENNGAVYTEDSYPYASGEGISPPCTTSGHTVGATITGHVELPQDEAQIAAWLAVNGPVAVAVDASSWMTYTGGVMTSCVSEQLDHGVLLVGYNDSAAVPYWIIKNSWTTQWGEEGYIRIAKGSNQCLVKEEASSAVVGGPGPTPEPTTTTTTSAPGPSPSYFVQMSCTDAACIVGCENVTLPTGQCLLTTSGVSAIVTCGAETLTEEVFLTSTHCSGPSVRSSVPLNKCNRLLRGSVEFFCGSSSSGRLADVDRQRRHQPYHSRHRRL
#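 Detergent-free condition (0.00005% Triton X-100) in acetate buffer pH 5.5 with DTT. 1.5 nM enzyme and compound were pre-mixed 15 min, then 2 uM Z-FR-AMC substrate added; reaction progress from fluorescence change between first and third reads (60 s).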
# Marburg entry inh: Marburg virus entry inhibition. Potency, µM (highest dose often 37.8 µM), for inactives: at the top dose activity change, negative = inhibition, most hits filed as inhibitors. actives 1.8% (n = 300,000). Marburg virus pseudotyped entry inhibition, cell reporter; control for the full effect not named in the record; about a third of the inactives were read at about 46 µM; active = well fitted inhibition curve with a large enough effect; inconclusive = small, poorly fitted or top-dose-only effect, or effect the other way; inactive = flat fitted curve, though single readings scatter; tested in HEK293 cells; about a fifth of its hits are not listed in these tables; further: on the % scale 0 is the no-effect control and ±100 the full control effect; luciferase read-out
# SARS PLP yeast: SARS-CoV PLP inhibition in yeast | S. cerevisiae expressing SARS-CoV PLpro, growth rescue; control for the full effect not named in the record | Potency, µM (highest dose often 32.9 µM), for the others: at the highest dose activity, positive = growth rescue | actives 0.19% (n = 330,000); further: 0% is about no effect; nearly all actives have a fitted effect of over 55% in size; growth read by luminescence after 48 h
# Lassa entry inh: blocks Lassa virus binding to or entry into cells. Lassa virus pseudotype entry inhibition, cell reporter; control for the full effect not named in the record. Potency, µM (top dose mostly 37.9 µM), for the others: at the top dose activity change, negative = inhibition, hits mostly inhibitors. actives 1.2% (n = 300,000); active means well fitted inhibition curve with a large enough effect; inconclusive means small, poorly fitted or top-dose-only effect, or effect the other way; inactive means flat fitted curve, though single readings scatter; tested in HEK293 cells; further: on the % scale 0 is the no-effect control and ±100 the full control effect; nearly all actives have a fitted effect of over 50% in size; luciferase read-out
# Cruzain inh Det: inhibitors of Trypanosoma cruzi cruzain with detergent. actives 0.43% (n = 200,000). purified cruzain, Z-FR-AMC fluorescence, 0.01% Triton. P25779. Potency, µM, for the others: max response, negative = inhibition, hits mostly inhibitors; active means well fitted curve in the direction sought with a large enough effect; inconclusive means small, poorly fitted or top-dose-only effect, or another doubt; inactive means no such curve, though single readings can be large; an effect the other way counts as inactive or inconclusive;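 further: plate controls were neutral wells for no effect and buffer without enzyme for full effect; nearly all actives have a fitted effect of over 40% in size; top concentration of the series not given in the record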
#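 Detergent-containing run (0.01% Triton X-100) in acetate buffer pH 5.5 with 5 mM DTT: enzyme at 1.5 nM final, 15 min compound preincubation at room temperature, then 2 uM Z-FR-AMC substrate. Activity taken as 60 s fluorescence increase at 360/450 nm.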
# RE007 growth inh: less growth of the S. pombe RE007 Vpr strain | Potency, µM (top dose mostly 92.2 µM), for the others: top-dose activity change, negative = less growth | AID 651644 | actives 0.21% (n = 360,000) | S. pombe RE007 Vpr strain, BacTiter-Glo ATP luminescence, 24 h; control for the full effect not named in the record; active = well fitted falling curve with a large enough effect; inconclusive = small, poorly fitted or top-dose-only effect; inactive = no such curve, though single readings can be large or run the other way;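 further: on the % scale 0 is the no-effect control and ±100 the full control effect; nearly all actives have a fitted effect of over 50% in size; the assay follows cell death caused by Vpr and the record does not say whether a fall means rescue or toxicity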
#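 Fission yeast strain RE007, carrying one chromosomally integrated HIV-1 vpr copy, was seeded at OD 0.01 in PMG+AL medium with 23 nL pinned compound. After 24 h at 30 °C and 99% humidity, viability was read by BacTiter-Glo luminescence.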
# StopGo reporter: lowers the luciferase signal of an FMDV 2A StopGo reporter. human cells with a luciferase reporter of 2A StopGo recoding; control for the full effect not named in the record. actives 1.2% (n = 410,000). AID 1159524. Potency, µM (highest dose often 57.9 µM), for the others: at the top dose signal change, negative = less light; active = well fitted falling curve with a large enough effect; inconclusive = small, poorly fitted or top-dose-only effect; inactive = no such curve, though single readings can be large or run the other way; tested in HEK293T cells; further: on the % scale 0 is the no-effect control and ±100 the full control effect; nearly all actives have a fitted effect of over 45% in size; luciferase light after 4 h
# NS1 function inh: blocks influenza NS1 protein function. S. cerevisiae slowed by influenza A NS1, growth recovery by OD600. Potency, µM (series often up to 46.1 µM), for inactives: top-dose activity, positive = more growth. actives 0.4% (n = 270,000); further: actives are rising curves; nearly all actives have a fitted effect of over 50% in size
#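 Read-out: OD600 growth recovery of NS1-expressing budding yeast. Cells grown overnight at 30C in -URA glucose medium, washed, resuspended and diluted 1:100 in 2% galactose assay medium, pH 6.0. Same strain lacking NS1 served as positive control.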
# The depositor's hits bear a star; ? = inconclusive; / = not tested or not shown; [ ] = dose if it differs, or a comment. Unless noted, the call rests on the fitted dose curve; in most records, active means well fitted rising curve with a large enough effect; inconclusive means small, poorly fitted or top-dose-only effect; inactive means no such curve, though single readings can be large or run the other way. Potency means the concentration at half of the fitted maximal effect. No enrichment for hits, and some 4.7% of all compounds hit somewhere here.
SMILES,Cruzain noTriton,Marburg entry inh,SARS PLP yeast,Lassa entry inh,Cruzain inh Det,RE007 growth inh,StopGo reporter,NS1 function inh
O=[N+]([O-])c1ccccc1/C=C/CN1CCN(Cc2ccc3c(c2)OCO3)CC1,/,/,1%,/,/,-12%,-2%,1%
O=C(c1ccc(Br)o1)N1CCN(c2ccc3nnc(-c4ccccc4)n3n2)CC1,?,/,-10%,/,-10.0%,-7%,?,-55%
Cc1nnc(NC(=O)CCCCCN2C(=O)C3C4C=CC(C4)C3C2=O)s1 (stereo unspecified),-4%,/,-1%,/,0.6%,5%,-14%,-1%
CCOc1ccc(CCNC(=O)CCCc2nnc3n(CC(C)C)c(=O)c4sccc4n23)cc1,5%,/,/,4%[46.1 µM],-0.1%,/,-13%,/
CCOc1ccc(NC(=O)N2C[C@H]3C[C@@H](C2)c2cccc(=O)n2C3)cc1,/,/,0%,/,/,2%,-10%,7%
Cc1c(-c2ccccc2)oc2nc3c(c(=O)n(C)c(=O)n3C)n12,2%,0%,2%,/,0.4%,/,/,-12%
CC(C(=O)Nc1cccc([N+](=O)[O-])c1)N1CCN(C/C=C/c2ccccc2)CC1 (stereo unspecified),-11%,?,-17%,-3%,-4.8%,5%,?,-3%
CCC1CN(C(=O)N2CCC(C(=O)NCc3cccc(F)c3)CC2)c2ccccc2O1 (stereo unspecified),/,/,2%,/,/,7%,-21%,-6%
O=C(Nc1ccccn1)c1cc(-c2cccnc2)nc2ccc(Br)cc12,-5%,?,-7%,?,-6.0%,-7%,0%,4%
O=C(O)c1ccc(COc2c(F)c(F)cc(F)c2F)o1,-12%,26%,-1%,-10%,-6.8%,6%,3%,14%
CC(=O)c1ccccc1Oc1cc(NN2CCCCC2)c([N+](=O)[O-])cc1[N+](=O)[O-],/,/,-1%,/,/,-14%,-22%,5%
O=C(CCn1c(=O)oc2ccccc21)N(Cc1ccccc1)c1ccccc1,/,/,4%,/,/,-4%,-21%,-5%
Cc1ccc(CO/N=C/c2c(O)cc(C)oc2=O)cc1,/,1%[46.1 µM],0%,17%[46.1 µM],/,-18%,1%,14%
Cc1cc(S(=O)(=O)Nc2ccc(C(=O)NCC(c3ccco3)N(C)C)cc2)ccc1F (stereo unspecified),/,31%,5%,-5%,/,16%,-6%,/
CCCc1cc(=O)oc2c(C)c(OCC(=O)NCCN3CCOCC3)ccc12,/,/,-5%,/,/,-2%,-18%,-2%
O=C(CN1CCCC1)Nc1ccc(OCc2ccccc2)cc1,/,/,-1%,/,/,-13%,20%,2%
O=C(O)c1ccccc1C(=O)Nc1ccc(Oc2cccc(C(F)(F)F)c2)nc1,/,19%[46.1 µM],-2%,-29%[46.1 µM],/,10%,3.2µM*,2%
OC(CNC1Cc2ccccc2C1)COc1ccc(F)cc1 (stereo unspecified),/,?,2%,-10%[46.1 µM],/,-1%,-16%,2%
NC1=NC(c2ccccc2)=NC1(NC(=O)c1ccccc1)C(Cl)Cl (stereo unspecified),/,-1%,-1%,/,/,-9%,-18%,-2%
CS(=O)(=O)N(CC(=O)Nc1ccc2c(c1)OCO2)c1ccccc1,-8%,?,-3%,16%,1.5%,-11%,/,2%
COc1ccc(Cc2nc3ccc(C(=O)NCc4ncc(C)[nH]4)cc3o2)cc1OC,/,/,0%,/,/,0%,2%,3%
C=CCN1C(=O)/C(=C2/Sc3ccc(OC)cc3N2C)SC1=Nc1ccccc1,/,?,0%,?,/,8%,-7%,5%
O=C(O)c1ccccc1C(=O)NC1Cc2ccccc2C1,/,?,2%,25%[46.1 µM],/,17%,18%,1%
O=C(c1ccc(NC2=NC3CS(=O)(=O)CC3S2)cc1)N1CCN(Cc2ccccc2)CC1 (stereo unspecified),-10%,/,3%,/,4.9%,9%,0%,11%
CSc1ccc(CCNC(=O)CCc2nnc3ccc(NCCCN4CCCC4=O)nn23)cc1,/,/,2%,/,/,-10%,2%,-1%
COCCCNC(=O)N1c2ccccc2Sc2ccccc21,/,19%[46.1 µM],2%,3%[46.1 µM],/,1%,-3%,-3%
COc1ccc(C2(c3ccc(OC)cc3)NC(=O)N(CC(=O)Nc3ccccc3C(F)(F)F)C2=O)cc1,/,-17%,-2%,?,/,-18%,-14%,4%
O=C(Cn1ncc2c(=O)oc3ccccc3c21)NCc1ccccc1Cl,7%,3%[46.1 µM],/,-19%[46.1 µM],1.2%,/,-14%,/
COc1ccc(C(=O)Nc2ccc(CN3CCCCC3)cc2)cc1,/,-5%[46.1 µM],-1%,-12%[46.1 µM],/,-7%,-8%,4%
Cc1cccc(CCNC(=O)c2cc3c(s2)-c2c(C)cccc2OC3)c1,-27%,-2%[46.1 µM],/,/,?,/,?,/
N#CCCN(C(=O)COC(=O)CCc1ccccc1)c1ccccc1,/,0%[46.1 µM],-13%,-13%,/,-6%,29%,-7%
Cc1cc(C)cc(OCC(=O)NCC2(N3CCOCC3)CCCCC2)c1,-1%,27%[46.1 µM],/,0%[46.1 µM],3.1%,/,-22%,/
O=[N+]([O-])c1ccc2c(c1)nc1n2CCN(CC2CCCO2)C1 (stereo unspecified),/,/,-1%,/,/,-11%,32%[activator],4%
O=C(C=Cc1ccco1)c1ccco1,/,-7%,/,-15%,/,?,72%[activator],/
Cc1ccc(SCc2cc(=O)n3ccsc3n2)c(C)c1,-18%,/,-24%,/,-5.6%,/,/,-6%
CO/N=C(\C)C(Cc1ccc(Cl)nc1)Cc1ccc(Cl)nc1,/,/,2%,/,/,6%,-30%,-3%
Cc1ccc(O)c(-c2cc(C(F)(F)F)[nH]n2)c1,-2%,?,-4%,13%,-8.6%,-9%,-11%,-37%
CN1CCC(OC(=O)c2ccc(Cl)cc2Cl)CC1,/,/,-1%,/,/,10%,0%,6%
COc1ccc(/C=C/C(=O)OCC(=O)NC2CCCCCC2)cc1OC,/,9%,?,-2%,/,-11%,?,/
CCOc1ccc(Br)cc1S(=O)(=O)NC1CC(C)(C)NC(C)(C)C1,/,/,0%,/,/,-17%,1%,16%
CCC(=O)OCCNc1cc(Sc2nc3ccccc3[nH]2)c2nonc2c1[N+](=O)[O-],-1%,?,-8%,?,-16%,-8%,?,1%
N/C(COc1cc(Cl)cc(Cl)c1)=N\O,/,?,0%,5%,/,1%,-11%,1%
CC(=O)c1cccc(N(CC(=O)Nc2ccccc2F)S(C)(=O)=O)c1,/,5%[46.1 µM],0%,-6%[46.1 µM],/,-9%,-8%,/
CCOc1cc2[nH]c(=O)n(CCCCCC(=O)NC3CCCC3)c(=O)c2cc1OCC,/,/,-1%,/,/,-2%,-17%,2%
Nc1cc(N2CCCC2)c(Cl)cc1[N+](=O)[O-],/,?,-9%,3%,/,-11%,-15%,/
CCC(NC(=O)c1[nH]c(C)c(C(C)=O)c1C)c1ccc(Br)cc1 (stereo unspecified),/,8.9µM*,-34%,?,/,-7%,-29%,-22%
Cc1ccc(CN2C(=O)C3CCCN3c3ccc(S(=O)(=O)N4CCOCC4)cc32)cc1 (stereo unspecified),4%,1%,2%,/,-5.3%,/,/,24%
COc1ccc(-c2nnc(Nc3nc4c(OC)cccc4s3)o2)cc1,15%,0%,-7%,-9%,-8.6%,-21%,16%,-44%
Cn1cnnc1SCC(=O)N1CCN(C(=O)c2ccco2)CC1,/,-4%[46.1 µM],1%,6%,/,7%,-8%,2%
COc1c2ccoc2nc2c(OC)c(OCC(OC(C)=O)C(C)(C)O)ccc12 (stereo unspecified),/,/,1%,/,/,-15%,-11%,-2%
COCCN(C(=O)CSc1nnc(-c2ccc(C)c(C)c2)o1)c1c(N)n(CC(C)C)c(=O)[nH]c1=O,/,-5%[46.1 µM],-1%,16%,/,2%,-2%,/
O=C(NC(NC(=S)Nc1ccccc1C(=O)O)C(Cl)(Cl)Cl)c1ccco1 (stereo unspecified),-15%,6%,6%,1%,-6.1%,-5%,-2%,2%
COC(=O)c1ccc(Cl)c(NC(=O)CN(c2ccc3c(c2)OCO3)S(C)(=O)=O)c1,2%,?,-1%,?,3.6%,6%,-28%,-20%
CCc1cccc2c(C#N)cn(CC(=O)N3CCOCC3)c12,-8%,-17%,-8%,1%,1.7%,-26%,-5%,5%
CC1(C)Cc2c(cnn2-c2ccccc2)C(=O)/C1=N\NC(=O)c1ccccc1O,-2%,-10%,-12%,-13%,-3.6%,10%,-26%,-74%
O=C(CSc1nc(-c2ccccc2)cs1)N1CCN(C(=O)c2ccco2)CC1,3%,20%,-2%,3%,-0.2%,11%,?,-9%
CCOC(=O)c1cnc2c(-c3ccccc3)cnn2c1C,/,26%[46.1 µM],0%,12%[46.1 µM],/,-19%,23%,-2%
CCc1ccc(N2C(=O)CC(N3CCN(Cc4ccc5c(c4)OCO5)CC3)C2=O)cc1 (stereo unspecified),/,8%[46.1 µM],4%,16%[46.1 µM],/,-19%,-18%,5%
CCCCN=C1NN=C(c2ccc(C)c(C)c2)CS1,/,?,-1%,-26%,/,-18%,38%[activator],/
COc1cc(/C=C/C(=O)N2CCN(Cc3ccccc3)CC2)cc(OC)c1OC,/,/,1%,/,/,1%,-30%,-3%
# (listing goes on)
SMILES,Cruzain noTriton,Marburg entry inh,SARS PLP yeast,Lassa entry inh,Cruzain inh Det,RE007 growth inh,StopGo reporter,NS1 function inh
COc1ccc(/C(C)=N/NC(=O)CNC(=O)/C=C\c2ccccc2)c(OC)c1,/,/,-5%,/,/,6%,-3%,-5%
O=C(Nc1ccc(-c2csc(Nc3ccccc3)n2)cc1)c1cccc(C(F)(F)F)c1,/,/,-5%,/,/,8%,?,16%
CCOc1ccc(C2c3c(oc4cc(C)c(C)cc4c3=O)C(=O)N2CCCN2CCOCC2)cc1 (stereo unspecified),-1%,-3%,7%,/,-1.5%,-4%,0%,-30%
Cn1nc(CC(=O)NC2CCCCCCCCCCC2)c2ccccc2c1=O,?,-15%[46.1 µM],-8%,-2%,-4.7%,7%,?,-1%
CC(C)(C)n1nnnc1SCC(=O)Nc1nn(-c2ccccc2)nc1C(N)=O,/,-15%[46.1 µM],1%,?,/,10%,-3%,/
